# UUG fidelity: alters start codon recognition fidelity in yeast; S. cerevisiae UUG-firefly luciferase reporter, luminescence/redox ratio; activity score, % at 18.7 µM; 0.13% of 350,000 active; AID 602363;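 active = replicate mean at a twofold rise or more, about +100% in these data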;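 also: firefly luciferase made from a UUG start codon reports start codon fidelity; reporter light over untreated wells divided by growth signal over untreated wells; some hits fall short of that in this replicate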
# HIV Env fusion: HIV envelope-mediated fusion inhibition; HeLa-JRFL Env/CEM21 cell fusion, luciferase; inhibition, % at 12.3 µM; 1.1% of 360,000 active; AID 651610;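 active = mean replicate inhibition score of at least 50 and every replicate individually at or above 50; inconclusive = only one of the two criteria met; inactive = mean below 50 and not all replicates reaching 50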;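 also: 0% = plate neutral controls and 100% = maraviroc near 300 nM; one replicate is shown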
# Numbers without * were called inactive; u = inconclusive; & = joins results of further samples; [ ] = dose if it differs, or a comment.
no.	SMILES	UUG fidelity	HIV Env fusion
1	O=C(N[C@@H]1CC[C@H](CCNC(=O)C2CC2)O[C@H]1CO)c1ccccn1	-9	0[16.7 µM]
2	C[C@H]1CN([C@@H](C)CO)S(=O)(=O)c2ccc(-c3ccccc3F)cc2O[C@H]1CN(C)CC1CC1	1	-14[16.7 µM]
3	CO[C@H]1CN(C)C(=O)c2ccc(NC(=O)Nc3ccc(F)cc3)cc2OC[C@H](C)NC[C@H]1C	0	12[16.7 µM]
4	CN1C(=O)c2cc(NC(=O)C3CCCC3)ccc2OC[C@@H]2O[C@@H](CC(=O)NCC3CC3)CC[C@@H]21	15	10[16.7 µM]
5	COCC(=O)N(C)C[C@@H]1Oc2ncc(-c3ccc(F)cc3)cc2C(=O)N([C@H](C)CO)C[C@H]1C	-9	6[16.7 µM]
6	Cc1noc(C)c1S(=O)(=O)N(C)C[C@@H]1Oc2ccc(NC(=O)CCC(F)(F)F)cc2CC(=O)N([C@@H](C)CO)C[C@H]1C	19	-2[16.7 µM]
7	CS(=O)(=O)Nc1ccc2c(c1)[C@H]1C[C@H](CC(=O)NCc3ccc(Oc4ccccc4)cc3)O[C@H](CO)[C@H]1O2	1	12[16.7 µM]
8	CN1C(=O)c2cc(NS(=O)(=O)c3ccccc3Cl)ccc2OC[C@H]2O[C@@H](CC(=O)O)CC[C@@H]21	-2	-18[16.7 µM]
9	C[C@@H]1CN([C@@H](C)CO)C(=O)Cc2cc(NC(=O)Nc3ccccc3)ccc2O[C@@H]1CN(C)S(=O)(=O)c1cccs1	17	-5[16.7 µM]
10	C[C@H]1CN([C@@H](C)CO)C(=O)Cc2cc(N(C)C)ccc2O[C@H]1CN(C)Cc1ccc(C(F)(F)F)cc1	3	7[16.7 µM]
11	C[C@H]1CN([C@@H](C)CO)C(=O)c2cc(NC(=O)Cc3cn(C)c4ccccc34)ccc2O[C@H]1CN(C)Cc1ccc(C(F)(F)F)cc1	3	3[16.7 µM]
12	C[C@@H]1CN([C@H](C)CO)C(=O)c2cccc(NC(=O)c3ccncc3)c2O[C@H]1CN(C)C(=O)Nc1cccc2ccccc12	-11	9[16.7 µM]
13	COc1ccc(CN(C)C[C@@H]2Oc3ccc(NC(=O)Nc4ccc5c(c4)OCO5)cc3C(=O)N([C@H](C)CO)C[C@H]2C)cc1	13	-12[16.7 µM]
14	Clc1ccc(-c2nc3ccc(Br)cn3c2Cc2ccccc2)cc1	-15	-1
15	CN(C)CCCNC(=O)C[C@H]1CC[C@H]2[C@H](COc3ccc(NC(=O)c4cccc(F)c4)cc3C(=O)N2C)O1	-9	-5[16.7 µM]
16	COc1ccc(NC(=O)N[C@@H]2CC[C@@H](CCNC(=O)CCN3CCCCC3)O[C@H]2CO)cc1	2	3[16.7 µM]
17	C[C@H](CO)N1C[C@H](C)[C@@H](CN(C)S(=O)(=O)c2ccc(Cl)cc2)Oc2ccc(NC(=O)Cn3cnnn3)cc2CC1=O	5	10[16.7 µM]
18	C[C@H]1CN([C@@H](C)CO)C(=O)c2cc(-c3ccccc3F)cnc2O[C@H]1CN(C)Cc1ccccc1F	-11	4[16.7 µM]
19	C[C@@H]1CN([C@@H](C)CO)C(=O)c2cc(-c3ccc(F)cc3)cnc2O[C@@H]1CN(C)C(=O)CN(C)C	8	-10[16.7 µM]
20	C[C@H](CO)N1C[C@H](C)[C@@H](CN(C)CC2CC2)Oc2ccc(NC(=O)c3ccncc3)cc2CC1=O	0	24[16.7 µM]
21	Cc1noc(C)c1NC(=O)N(C)C[C@@H]1OCCCC[C@H](C)Oc2ccc(NC(=O)CCC(F)(F)F)cc2C(=O)N([C@H](C)CO)C[C@H]1C	0	10[16.7 µM]
22	COCCNC(=O)C[C@H]1C[C@@H]2c3cc(NC(=O)Nc4ccc(OC)cc4)ccc3O[C@@H]2[C@H](CO)O1	33	-7[16.7 µM]
23	COc1ccc(S(=O)(=O)Nc2ccc3c(c2)CC(=O)N([C@H](C)CO)C[C@@H](C)[C@@H](CN(C)S(=O)(=O)c2ccc(Cl)cc2)O3)cc1	2	10[16.7 µM]
24	Cc1noc(C)c1NC(=O)N(C)C[C@@H]1Oc2ccc(NS(=O)(=O)c3cn(C)cn3)cc2CC(=O)N([C@H](C)CO)C[C@@H]1C	-6	-26[16.7 µM]
25	O=C(C[C@H]1C[C@@H]2c3cc(NC(=O)NC4CCCCC4)ccc3O[C@@H]2[C@@H](CO)O1)NCC1CC1	-16	3[16.7 µM]
26	COc1ccc(NC(=O)N(C)C[C@@H]2Oc3ncc(C#CC(C)(C)O)cc3C(=O)N([C@H](C)CO)C[C@@H]2C)cc1	39	-76[16.7 µM]
27	C[C@H](CO)N1C[C@H](C)[C@H](CN(C)Cc2ccc(Oc3ccccc3)cc2)Oc2ccc(NC(=O)C3CC3)cc2C1=O	5	-12[16.7 µM]
28	CO[C@@H]1CN(C)C(=O)c2cc(NC(=O)Cc3ccccc3)ccc2OC[C@@H](C)N(CC2CC2)C[C@H]1C	22	18[16.7 µM]
29	C[C@@H]1CN([C@H](C)CO)C(=O)c2cc(NC(=O)c3ccncc3)ccc2O[C@@H](C)CCCCO[C@@H]1CN(C)C(=O)c1ccccc1	-1	14[16.7 µM]
30	N#C[C@@H]1[C@@H](c2ccc(-c3cccnc3)cc2)[C@H](CO)N1C(=O)C1CCOCC1	-3	9[16.7 µM]

# Pulled one by one from the entries so far (six):
no.	SMILES	UUG fidelity	HIV Env fusion
25	O=C(C[C@H]1C[C@@H]2c3cc(NC(=O)NC4CCCCC4)ccc3O[C@@H]2[C@@H](CO)O1)NCC1CC1	-16	3[16.7 µM]
7	CS(=O)(=O)Nc1ccc2c(c1)[C@H]1C[C@H](CC(=O)NCc3ccc(Oc4ccccc4)cc3)O[C@H](CO)[C@H]1O2	1	12[16.7 µM]
26	COc1ccc(NC(=O)N(C)C[C@@H]2Oc3ncc(C#CC(C)(C)O)cc3C(=O)N([C@H](C)CO)C[C@@H]2C)cc1	39	-76[16.7 µM]
21	Cc1noc(C)c1NC(=O)N(C)C[C@@H]1OCCCC[C@H](C)Oc2ccc(NC(=O)CCC(F)(F)F)cc2C(=O)N([C@H](C)CO)C[C@H]1C	0	10[16.7 µM]
11	C[C@H]1CN([C@@H](C)CO)C(=O)c2cc(NC(=O)Cc3cn(C)c4ccccc34)ccc2O[C@H]1CN(C)Cc1ccc(C(F)(F)F)cc1	3	3[16.7 µM]
20	C[C@H](CO)N1C[C@H](C)[C@@H](CN(C)CC2CC2)Oc2ccc(NC(=O)c3ccncc3)cc2CC1=O	0	24[16.7 µM]

# The list continues.
no.	SMILES	UUG fidelity	HIV Env fusion
31	CCCN(C)C[C@@H]1Oc2cc(-c3ccccc3OC)ccc2S(=O)(=O)N([C@H](C)CO)C[C@@H]1C	0	-7[16.7 µM]
32	Cc1ccc(S(=O)(=O)Nc2ccc3c(c2)CC(=O)N([C@@H](C)CO)C[C@@H](C)[C@@H](CN(C)C(=O)Nc2ccc(C(F)(F)F)cc2)O3)cc1	1	16[16.7 µM]
33	C/C=C/c1cnc2c(c1)C(=O)N([C@H](C)CO)C[C@@H](C)[C@H](CN(C)C(=O)NCCC)O2	0	-9[16.7 µM]
34	C[C@H](CO)N1C[C@H](C)[C@H](CN(C)C(=O)CN(C)C)Oc2cc(-c3cncnc3)ccc2S1(=O)=O	-15	0[16.7 µM]
35	COCCNC(=O)C[C@@H]1C[C@H]2c3cc(NC(=O)C4CCC4)ccc3O[C@H]2[C@@H](CO)O1	13	20[16.7 µM]
36	COc1ccc(CN(C)C[C@H]2Oc3ccc(NC(=O)C4CC4)cc3C(=O)N([C@H](C)CO)C[C@@H]2C)cc1	-2	26[16.7 µM]
37	C[C@@H]1CN([C@@H](C)CO)S(=O)(=O)c2ccc(-c3ccncc3)cc2O[C@@H]1CN(C)C(=O)Nc1ccc(F)cc1	-11	-62[16.7 µM]
38	C[C@@H]1CN([C@@H](C)CO)C(=O)Cc2cc(NS(=O)(=O)c3cn(C)cn3)ccc2O[C@@H]1CN(C)S(=O)(=O)c1ccc(Cl)cc1	-1	-1[16.7 µM]
39	C[C@@H]1CCCCO[C@@H](CN(C)Cc2ccncc2)[C@H](C)CN([C@H](C)CO)C(=O)c2cc(NS(=O)(=O)c3ccc(Cl)cc3)ccc2O1	14	-6[16.7 µM]
40	COc1ccc(NC(=O)Nc2ccc3c(c2)C(=O)N([C@@H](C)CO)C[C@H](C)[C@H](CN(C)C(=O)C2CCCCC2)OCCCC[C@H](C)O3)cc1	-6	u
41	Cc1noc(C)c1S(=O)(=O)Nc1ccc2c(c1)C(=O)N([C@H](C)CO)C[C@H](C)[C@H](CN(C)Cc1ccc3c(c1)OCO3)OCCCC[C@@H](C)O2	14	-12[16.7 µM]
42	COc1ccc(-c2cn(CC[C@@H]3CC[C@@H](NS(=O)(=O)c4ccccc4C)[C@H](CO)O3)nn2)cc1	-6	20[16.7 µM]
43	Cc1noc(C)c1S(=O)(=O)Nc1ccc2c(c1)C(=O)N([C@@H](C)CO)C[C@H](C)[C@H](CN(C)C(=O)c1ccccc1)OCCCC[C@@H](C)O2	25	6[16.7 µM]
44	C/C=C/c1cnc2c(c1)C(=O)N([C@H](C)CO)C[C@H](C)[C@@H](CN(C)C(=O)Cc1ccccc1)O2	3	0[16.7 µM]
45	Cc1ccc(S(=O)(=O)N[C@H]2CC[C@@H](CC(=O)N3CCC(Cc4ccccc4)CC3)O[C@@H]2CO)cc1	4	14[16.7 µM]
46	Cc1noc(C)c1NC(=O)Nc1ccc2c(c1)CC(=O)N([C@@H](C)CO)C[C@H](C)[C@@H](CN(C)C(=O)NC(C)C)O2	-2	10[16.7 µM]
47	Cc1ccc(S(=O)(=O)N[C@@H]2CC[C@H](CCNS(=O)(=O)Cc3ccccc3)O[C@H]2CO)cc1	12	-17[16.7 µM]
48	CCCC#Cc1ccc2c(c1)O[C@@H](CN(C)CC1CC1)[C@@H](C)CN([C@H](C)CO)S2(=O)=O	-6	2[16.7 µM]
49	C[C@H](CO)N1C[C@H](C)[C@H](CN(C)C)Oc2ncc(C#Cc3ccc(F)cc3)cc2C1=O	5&-3	5&13[16.7 µM]
50	C/C=C/c1ccc2c(c1)O[C@H](CN(C)C(C)=O)[C@H](C)CN([C@@H](C)CO)S2(=O)=O	20	7[16.7 µM]
51	CC(C)NC(=O)Nc1ccc2c(c1)C(=O)N([C@H](C)CO)C[C@@H](C)[C@H](CN(C)S(=O)(=O)c1cn(C)cn1)OCCCC[C@H](C)O2	5	5[16.7 µM]
52	CCCC#Cc1ccc([C@H]2[C@@H](CO)N(C(=O)C3CC3)[C@H]2C#N)cc1	12	3[16.7 µM]
53	C[C@H](CO)N1C[C@H](C)[C@H](CN(C)C(=O)c2ccccc2)Oc2ncc(C#C[C@@H](C)O)cc2C1=O	-8	-12[16.7 µM]
54	O=C(N[C@@H]1CC[C@@H](CCNS(=O)(=O)c2ccccc2)O[C@@H]1CO)c1cnccn1	-3	-32[16.7 µM]
55	COc1ccc(NC(=O)Nc2ccc3c(c2)C(=O)N([C@H](C)CO)C[C@H](C)[C@@H](CN(C)C(=O)Nc2cccc4ccccc24)O3)cc1	-8	17[16.7 µM]
56	CCNC(=O)Nc1ccc2c(c1)C(=O)N(C)[C@@H]1CC[C@H](CC(=O)NCc3ccc(F)cc3)O[C@H]1CO2	8	13[16.7 µM]
57	C[C@H](CO)N1C[C@H](C)[C@H](CN(C)S(=O)(=O)c2ccc(Cl)cc2)Oc2ccc(NS(=O)(=O)c3ccccc3)cc2CC1=O	-5	55*[16.7 µM]
58	Cc1noc(C)c1NC(=O)N(C)C[C@@H]1Oc2cc(C#CCN(C)C)ccc2S(=O)(=O)N([C@H](C)CO)C[C@@H]1C	7	2[16.7 µM]
59	CCCN(C)C[C@@H]1Oc2ncc(C#CCOC)cc2C(=O)N([C@@H](C)CO)C[C@@H]1C	1	5[16.7 µM]
60	Cc1noc(C)c1S(=O)(=O)Nc1ccc2c(c1)C(=O)N([C@H](C)CO)C[C@H](C)[C@@H](CN(C)Cc1ccccc1)OCCCC[C@H](C)O2	9	-7[16.7 µM]
61	C[C@H](CO)N1C[C@H](C)[C@@H](CN(C)CC2CC2)Oc2c(NC(=O)C3CCOCC3)cccc2C1=O	-17	-4[16.7 µM]
62	C/C=C/c1cnc2c(c1)C(=O)N([C@@H](C)CO)C[C@@H](C)[C@H](CN(C)C(=O)c1cccc(F)c1)O2	24	-6[16.7 µM]
63	C[C@H](CO)N1C[C@H](C)[C@H](CN(C)S(C)(=O)=O)Oc2ncc(-c3cccc(C(F)(F)F)c3)cc2C1=O	-2	-2[16.7 µM]
64	O=C(NCC[C@@H]1CC[C@H](NC(=O)c2ccccc2F)[C@H](CO)O1)c1cnccn1	-5	-4[16.7 µM]
65	C[C@@H]1CN([C@@H](C)CO)C(=O)c2cc(NC(=O)Nc3ccccc3)ccc2O[C@@H](C)CCCCO[C@H]1CN(C)C	12	15[16.7 µM]
66	C[C@@H]1CN([C@H](C)CO)S(=O)(=O)c2ccc(-c3cccc(C#N)c3)cc2O[C@H]1CN(C)C(=O)Nc1ccccc1F	1	-24[16.7 µM]
67	O=S(=O)(N[C@@H]1CC[C@@H](CCn2cc(C3(O)CCCC3)nn2)O[C@H]1CO)c1ccc(Cl)cc1	-4	3[16.7 µM]
68	C[C@@H]1CN([C@H](C)CO)C(=O)c2cc(NC(=O)c3ccncc3)ccc2O[C@@H](C)CCCCO[C@H]1CN(C)C(=O)Nc1cccc2ccccc12	7	11[16.7 µM]

# Compound profiles, as listed above:
# CCCN(C)C[C@@H]1Oc2ncc(C#CCOC)cc2C(=O)N([C@@H](C)CO)C[C@@H]1C as listed: UUG fidelity: 1; HIV Env fusion: 5[16.7 µM]
# COc1ccc(NC(=O)N(C)C[C@@H]2Oc3ncc(C#CC(C)(C)O)cc3C(=O)N([C@H](C)CO)C[C@@H]2C)cc1 as listed: UUG fidelity: 39; HIV Env fusion: -76[16.7 µM]

# Only part of the results is shown; rates above refer to the full screens.
